Screens from PubChem.
PrP UTR inh: inhibition of PrP 5' UTR reporter expression; cell-based PrP 5' UTR mRNA reporter, plate reader; AID 488862; inhibition, % (test concentration not listed); 340,000 compounds, 0.35% hits;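 active = every replicate at 50% or more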;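 also: 0 = median of the neutral control wells; tested in H4 reporter cells; numbers are from one replicate; inactives centre near -14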
RN4220 kill: S. aureus RN4220 growth inhibition | 330,000 compounds, 0.33% hits | inhibition, % (no concentration beside the values) | AID 1259311 | OD600, 16 h;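 active = z-score of -3 or lower and OD600 up to 0.18 on both plates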;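 also: plate controls were untreated cells for no effect and reference antibiotic for full effect; stock transfer was 100 nL into about 80 µL; one replicate is shown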
Autofluor counter: compound fluorescence in toxin protease inhibitor counterscreen. compound autofluorescence counterscreen, microsphere flow cytometry; active compounds read high. fluorescence intensity (no concentration beside the values). 360,000 compounds, 3.1% hits;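 active = at least 3 SD above the mean of all compounds, about 16000 in these data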;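 also: 100 nL of 1 mM stock went into each well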
ugtP null kill: growth inhibition of S. aureus ugtP deletion strain | S. aureus RN4220 ugtP deletion, OD600 growth, 16 h; some inactives read as strong as hits | growth inhibition, % (no concentration beside the values) | 330,000 compounds, 0.54% hits | AID 1259309;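 active = z-score under -3 and OD600 up to 0.15 on both plates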;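 also: plate controls were untreated wells for no effect and antibiotic for full effect; wells of about 80 µL received 100 nL stock; the first replicate is given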
BJeLR viability: BJeLR cell viability loss. inhibition, % (concentration not given with the values). AID 1554. BJeLR (HRASV12) viability, CellTiter-Glo ATP luminescence, 48 h; reference of the scale not given here. 300,000 compounds, 0.17% hits;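 active = replicate mean above 50%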;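 also: 50 nL library stock added to about 25 µL; numbers are from one replicate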
Mtb hypoxia rep: Mtb hypoxia fluorescent reporter inhibition. M. tuberculosis hypoxia-regulated fluorescent reporter, fluorescence. fluorescence inhibition, % (concentration not given with the values). 300,000 compounds, 0.1% hits;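 active = 35 to 45% if threefold the growth effect, above 45% if 1.5-fold the growth effect; inactive = the rest, general growth blockers included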;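 also: wells of about 50 µL received 100 nL stock; 0% = vehicle wells and 100% = reference inhibitor wells; whole bacteria with a GFP reporter of the hypoxia response; strong numbers were not always called active; many hits fall short of the cut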
Mtb hypoxia rep growth: also measured in Mtb hypoxia rep; calls as there; growth inhibition, %; measured here: M. tuberculosis growth (absorbance);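 0% = vehicle and 100% = reference antibiotic; read after six days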
* = called active by the depositor; · = not tested or not shown. Compounds were not picked by outcome; 4% or so of the library scored in one or more.

1	COc1ccc(/C=C(\C#N)C(=O)Nc2cccnc2)cc1
2	COC(=O)CCC(=O)OC1(C)C(=O)C2=CN(c3ccccc3)C(c3ccc(OC)cc3)=CC2=C(Br)C1=O (stereo not drawn)
3	Cc1cc(=O)n2nc(N3CCCC(C(=O)NC4CCC(C)CC4)C3)sc2n1 (stereo not drawn)
4	Clc1ccc2noc(-c3ccccc3)c2c1
5	O=C(CSc1nnc(COc2ccc(Cl)cc2)o1)NC1CCCCC1
6	Cc1ccsc1C=NNC(=O)c1ccc(-n2cccc2)cc1
7	COc1cccc(OC)c1C(=O)Nc1ccccc1C(=O)N1CCCC1
8	Fc1ccc(CNC(=S)Nc2ccc(Cl)cc2Cl)cc1
assay / entry,1,2,3,4,5,6,7,8
PrP UTR inh,-53.6,-3.2,-4.9,-16.2,-5.6,·,-14.7,2.1
RN4220 kill,2.6,9.9,4.5,5.1,-0.1,1.7,4.9,·
Autofluor counter,2576,2907,4294,5932,6861,·,4588,2060
ugtP null kill,1.0,-0.7,12.5,6.7,1.9,-3.8,10.9,·
BJeLR viability,5.0,8.2,-6.7,-1.9,-8.0,·,1.2,-8.4
Mtb hypoxia rep,3.0,16.6,-5.9,5.3,16.5,-5.6,8.4,·
Mtb hypoxia rep growth,5.3,10.5,-7.4,13.6,8.3,5.5,-11.8,·

9	Cn1nc(C(F)(F)F)c(-c2ccc(Br)cc2)c1NC(=O)c1cccnc1
10	O=C(CSc1nc2nn(-c3ccccc3)c(=O)c-2c2n1CCCCC2)Nc1ccc(OC(F)F)cc1
11	O=C(CSC1CC(=O)N(CCc2ccccc2)C1=O)Nc1ccc(Br)cc1 (stereo not drawn)
12	O=C(NCC(c1cccs1)N1CCOCC1)c1cc([N+](=O)[O-])cc([N+](=O)[O-])c1 (stereo not drawn)
13	O=[N+]([O-])c1ccc(CSc2nc3ccccc3[nH]2)cc1
14	O=C(Nc1ccccc1)c1n[nH]c(Cn2cncn2)n1
15	Cc1cc(C)n2nc(Sc3ncccc3[N+](=O)[O-])nc2n1
16	COC(=O)c1cn(S(=O)(=O)c2ccccc2)c2ccccc12
assay / entry,9,10,11,12,13,14,15,16
PrP UTR inh,-6.6,-20.0,-2.7,12.1,-71.0,-2.4,·,-15.0
RN4220 kill,5.1,1.8,6.1,23.5,1.6,5.5,4.8,-2.2
Autofluor counter,5975,4101,3275,1995,2499,23808*,5155,3868
ugtP null kill,-10.9,-11.8,3.2,8.7,2.6,1.0,4.4,46.6
BJeLR viability,0.9,·,2.4,-1.9,-31.2,-9.0,5.8,-8.2
Mtb hypoxia rep,8.4,14.7,9.6,·,4.7,1.6,1.7,-2.3
Mtb hypoxia rep growth,5.0,7.5,5.1,·,4.8,5.7,6.4,-1.1

Single entries from the results shown:
For Mtb hypoxia rep, no. 9 shows 8.4
For Autofluor counter, no. 12 shows 1995
For BJeLR viability, no. 14 shows -9.0

Continued:
17	CCC(C)(C)C1CCc2[nH]nc(C(=O)O)c2C1 (stereo not drawn)
18	CSCCC(NS(=O)(=O)c1cccs1)C(=O)NCc1ccccc1 (stereo not drawn)
19	CCCCn1c(N)c(N(CCOC)C(=O)COC(=O)CSc2cc(C)c3ccccc3n2)c(=O)[nH]c1=O
20	CC(NC(=O)c1nc[nH]c1C(=O)NC(Cc1ccccc1)C(=O)OCc1ccccc1)C(=O)OC(C)(C)C (stereo not drawn)
21	C[C@@H](C(=O)N[C@@H](Cc1ccccc1)C(=O)O)n1nnc2ccccc2c1=O
22	O=C(c1ccc(N2CCN(C3CC(=O)N(Cc4cccs4)C3=O)CC2)cc1)c1cccnc1 (stereo not drawn)
23	Cc1c(C(=O)NCc2ccco2)oc2ccc(S(=O)(=O)N3CCC4(CC3)OCCO4)cc12
24	Fc1ccc(-n2cc(-c3ccccc3)[n+]3c2SCC3)cc1
assay / entry,17,18,19,20,21,22,23,24
PrP UTR inh,-13.6,-19.3,-69.7,·,6.1,9.9,-7.8,-41.6
RN4220 kill,4.2,0.4,2.6,4.1,4.3,0.7,6.3,7.5
Autofluor counter,3333,2361,5662,·,4466,4649,4038,4221
ugtP null kill,2.0,4.9,8.7,-16.8,5.3,1.1,-13.6,3.6
BJeLR viability,·,1.6,1.7,·,3.7,26.0,-1.1,11.5
Mtb hypoxia rep,-0.2,3.4,4.2,4.9,-8.4,4.9,8.5,3.9
Mtb hypoxia rep growth,1.7,5.2,-0.5,9.9,-6.3,10.3,13.1,-3.9

25	Cc1noc(C)c1C(=O)Nc1ccccc1C(=O)NCCc1ccccc1
26	CCOC(=O)N1CCN(C(=O)Cc2cccc3ccccc23)CC1
27	Cn1cc(S(=O)(=O)N2CCCC2)cc1C(=O)N1CCN(c2cccc(Cl)c2)CC1
28	CCCCC(C(=O)NCCC(C)C)N(CCCN1CCOCC1)C(=O)c1snc(C(N)=O)c1N (stereo not drawn)
29	CS(=O)(=O)c1ccc(CNC(=O)C2(C(F)(F)F)CC(CCCO)CCCO2)cc1 (stereo not drawn)
30	Brc1cccc(-c2nnc3sc(CN4CCCCC4)cn23)c1
31	O=C(CSc1nnc(-c2ccccc2)c(-c2ccccc2)n1)NCc1ccco1
32	CCOc1ccc(-c2cc(C)[n+](CCO)c(-c3ccc(OCC)cc3)c2)cc1
assay / entry,25,26,27,28,29,30,31,32
PrP UTR inh,-30.9,-23.8,-16.0,-22.6,·,-9.7,-21.5,-29.8
RN4220 kill,1.9,3.8,-17.8,3.0,2.8,1.4,0.9,3.3
Autofluor counter,4345,2054,6142,20769*,·,9738,9779,4460
ugtP null kill,2.8,5.2,-4.0,-1.0,4.9,2.5,10.8,-1.9
BJeLR viability,-6.6,-1.5,2.3,3.3,28.6,-8.7,-1.9,6.6
Mtb hypoxia rep,4.2,2.8,8.1,10.8,20.2,4.1,1.4,11.8
Mtb hypoxia rep growth,1.1,-2.3,9.4,4.6,7.2,2.8,5.1,18.2

33	COc1ccccc1NC(=O)CC(c1ccc(OC(C)C)cc1)c1ccccc1OC (stereo not drawn)
34	CCN(CC)S(=O)(=O)c1cc(NC(=O)CSc2nc3c(cc2C#N)C(=O)CC(C)(C)C3)ccc1C
35	O=S(=O)(c1ccccc1)N1CCN(C(=S)Nc2ccc(F)cc2)CC1
36	Cc1ccc(F)cc1NC(=O)C12CC3CC(C1)CC(n1cnc([N+](=O)[O-])n1)(C3)C2
37	COc1ccc(C=NNC(=O)CSc2n[nH]c(=O)[nH]c2=O)cc1
38	Cc1ccc(C(=O)NCC2CCCO2)cc1S(=O)(=O)N1CCCCC1 (stereo not drawn)
39	CCC1(c2ccc(F)cc2)NC(=O)N(CC(=O)N2CCN(S(=O)(=O)c3ccc(Cl)cc3)CC2)C1=O (stereo not drawn)
40	CN(CP(=O)(O)CCc1ccccc1)S(C)(=O)=O
assay / entry,33,34,35,36,37,38,39,40
PrP UTR inh,-8.7,-9.5,-0.7,-5.0,·,-12.3,-10.4,-16.5
RN4220 kill,4.9,13.0,5.8,-6.5,5.9,-1.5,-0.8,2.4
Autofluor counter,2169,9380,2081,4080,·,5359,4830,2366
ugtP null kill,17.9,4.7,17.7,14.5,3.2,5.3,0.3,0.6
BJeLR viability,-4.9,3.5,7.6,7.8,·,7.0,-3.0,0.7
Mtb hypoxia rep,6.8,7.3,16.8,·,4.6,7.4,-2.3,·
Mtb hypoxia rep growth,4.2,-2.1,10.9,·,-2.9,10.7,5.9,·

2 entries drawn at random from the list so far, as already listed:
40	CN(CP(=O)(O)CCc1ccccc1)S(C)(=O)=O
36	Cc1ccc(F)cc1NC(=O)C12CC3CC(C1)CC(n1cnc([N+](=O)[O-])n1)(C3)C2
assay / entry,40,36
PrP UTR inh,-16.5,-5.0
RN4220 kill,2.4,-6.5
Autofluor counter,2366,4080
ugtP null kill,0.6,14.5
BJeLR viability,0.7,7.8
Mtb hypoxia rep,·,·
Mtb hypoxia rep growth,·,·

(more compounds)
41	COc1ccc(C(C)=NNC(=O)c2ccc(CSc3cccc4cccnc34)cc2)cc1OC
42	O=C(Nc1ccccc1)ON=C1CCCC1
43	NC(=NOC(=O)Cc1ccccc1[N+](=O)[O-])c1ccc(Br)cc1
44	Cc1nn(-c2ccccc2)c(C)c1/C=N/Nc1nc2ccccc2[nH]1
45	NC(=O)c1ccccc1OCC(=O)NS(=O)(=O)c1ccccc1
46	S=C(NCc1ccco1)NN=Cc1ccncc1
47	CCn1ccnc1CN(C)Cc1cn(-c2cc(C)ccc2C)nc1-c1ccccc1
48	CCOC(=O)c1cc2c(c(-c3ccccc3)n1)[C@@H](CCO)N(S(=O)(=O)C(C)(C)C)C2
assay / entry,41,42,43,44,45,46,47,48
PrP UTR inh,·,-32.3,·,-43.7,-24.4,·,-23.7,-10.3
RN4220 kill,9.5,3.3,0.6,·,1.8,3.8,·,-0.7
Autofluor counter,·,10718,·,2418,16086,·,3517,3803
ugtP null kill,-7.0,8.6,6.2,·,4.0,8.3,·,-1.1
BJeLR viability,·,-1.6,·,7.7,-17.5,·,-5.6,·
Mtb hypoxia rep,-0.9,21.4,8.0,·,3.3,7.4,·,-2.9
Mtb hypoxia rep growth,7.3,17.0,-2.0,·,5.1,-0.3,·,1.5

49	CCN(C(=O)C=Cc1ccco1)c1ccccc1
50	O=C(Nc1nnc(-c2ccc(F)cc2)s1)c1ccco1
51	COc1ccc([N+](=O)[O-])cc1NC(=O)CCN1CCN(CCO)CC1
52	COc1ccc(Cn2c(CO)cnc2SCC(=O)Nc2cccc(NC(C)=O)c2)cc1
53	COCCCN(C(=S)Nc1ccc(OC)cc1)C(C)c1ccncc1 (stereo not drawn)
54	CCN(CC)CCN/N=C(\C)c1c(O)[nH]c(=O)[nH]c1=O
55	COCCNC(=O)CCC(=O)NNc1nc2ccccc2c2nc(-c3ccccc3)nn12
56	CCOC(=O)N1CCC(NC(=O)c2cc(C(=O)NC3CCN(Cc4ccccc4)CC3)ccc2CO)CC1
57	Cc1ccc(N2CCC(N3CCN(C4CCCCC4)C(CCO)C3)CC2)cc1 (stereo not drawn)
58	CCOC(=O)C1C(=O)NC23CCCC2C1c1ccccc1O3 (stereo not drawn)
assay / entry,49,50,51,52,53,54,55,56,57,58
PrP UTR inh,-12.7,-46.1,-8.9,-9.9,-23.4,·,-16.8,-17.8,-70.2,-26.4
RN4220 kill,1.7,1.9,3.0,4.2,-2.1,2.2,3.7,1.8,3.1,6.7
Autofluor counter,3088,4087,2093,4458,4475,·,2628,2349,2843,4065
ugtP null kill,-5.1,-7.1,4.9,16.6,-6.1,8.0,4.8,1.5,2.5,-3.8
BJeLR viability,·,0.7,5.3,1.6,8.8,-8.6,-4.9,8.2,-3.0,-6.8
Mtb hypoxia rep,6.3,3.7,-4.2,7.1,1.4,6.9,3.2,2.7,13.1,7.3
Mtb hypoxia rep growth,1.5,-1.8,8.8,1.5,-4.5,-5.5,15.2,-3.1,6.9,15.6

Gathered by group, the compounds so far containing fluorine.
8	Fc1ccc(CNC(=S)Nc2ccc(Cl)cc2Cl)cc1
9	Cn1nc(C(F)(F)F)c(-c2ccc(Br)cc2)c1NC(=O)c1cccnc1
10	O=C(CSc1nc2nn(-c3ccccc3)c(=O)c-2c2n1CCCCC2)Nc1ccc(OC(F)F)cc1
24	Fc1ccc(-n2cc(-c3ccccc3)[n+]3c2SCC3)cc1
29	CS(=O)(=O)c1ccc(CNC(=O)C2(C(F)(F)F)CC(CCCO)CCCO2)cc1 (stereo not drawn)
35	O=S(=O)(c1ccccc1)N1CCN(C(=S)Nc2ccc(F)cc2)CC1
36	Cc1ccc(F)cc1NC(=O)C12CC3CC(C1)CC(n1cnc([N+](=O)[O-])n1)(C3)C2
39	CCC1(c2ccc(F)cc2)NC(=O)N(CC(=O)N2CCN(S(=O)(=O)c3ccc(Cl)cc3)CC2)C1=O (stereo not drawn)
50	O=C(Nc1nnc(-c2ccc(F)cc2)s1)c1ccco1
assay / entry,8,9,10,24,29,35,36,39,50
PrP UTR inh,2.1,-6.6,-20.0,-41.6,·,-0.7,-5.0,-10.4,-46.1
RN4220 kill,·,5.1,1.8,7.5,2.8,5.8,-6.5,-0.8,1.9
Autofluor counter,2060,5975,4101,4221,·,2081,4080,4830,4087
ugtP null kill,·,-10.9,-11.8,3.6,4.9,17.7,14.5,0.3,-7.1
BJeLR viability,-8.4,0.9,·,11.5,28.6,7.6,7.8,-3.0,0.7
Mtb hypoxia rep,·,8.4,14.7,3.9,20.2,16.8,·,-2.3,3.7
Mtb hypoxia rep growth,·,5.0,7.5,-3.9,7.2,10.9,·,5.9,-1.8
